GALR2 agonist: activates the human galanin receptor 2 | AID 803 | activation, %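 (tested at 5 µM)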 | GALR2-expressing cells, agonist activation read-out | hit rate 0.48% among 140,000;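 active = above mean plus 3 SD of all compounds, about 5% in these data, not always enough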;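 also: 0% = vehicle buffer wells and 100% = reference agonist at full effect; tested in CHO reporter cells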
Target sequence (O43603 whole entry, looked up): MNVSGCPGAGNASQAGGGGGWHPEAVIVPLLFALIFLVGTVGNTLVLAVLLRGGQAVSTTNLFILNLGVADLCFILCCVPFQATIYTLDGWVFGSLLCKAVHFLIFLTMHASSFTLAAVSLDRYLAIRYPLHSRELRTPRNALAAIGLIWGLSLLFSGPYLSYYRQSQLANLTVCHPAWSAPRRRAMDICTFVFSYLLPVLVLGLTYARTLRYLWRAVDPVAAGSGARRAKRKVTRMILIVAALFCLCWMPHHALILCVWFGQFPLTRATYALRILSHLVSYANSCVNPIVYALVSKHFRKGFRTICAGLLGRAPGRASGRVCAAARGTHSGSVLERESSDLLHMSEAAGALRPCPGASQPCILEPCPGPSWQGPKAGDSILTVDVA
RGS16-Gao: modulates binding between human RGS16 and Galphao; hit rate 0.38% among 220,000; binding response (% of control), % at 10 µM; O15492+P09471; bead-based flow cytometry RGS16-Galphao binding, fluorescence; actives lie on both sides;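 active = below 25% or above 175%, edge rows of some plates excepted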;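 also: Galphao activated by GDP with aluminum fluoride before binding; 100% = wells without compound and 0% = beads without RGS; some results beyond the cut were filed as inactive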
Target sequence (O15492 whole entry, looked up): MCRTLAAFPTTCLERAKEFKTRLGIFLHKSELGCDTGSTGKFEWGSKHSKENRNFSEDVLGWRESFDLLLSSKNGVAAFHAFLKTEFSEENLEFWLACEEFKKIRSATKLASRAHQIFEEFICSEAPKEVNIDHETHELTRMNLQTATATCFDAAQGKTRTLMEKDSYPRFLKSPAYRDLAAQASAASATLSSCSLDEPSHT
Target sequence (P09471 whole entry, looked up): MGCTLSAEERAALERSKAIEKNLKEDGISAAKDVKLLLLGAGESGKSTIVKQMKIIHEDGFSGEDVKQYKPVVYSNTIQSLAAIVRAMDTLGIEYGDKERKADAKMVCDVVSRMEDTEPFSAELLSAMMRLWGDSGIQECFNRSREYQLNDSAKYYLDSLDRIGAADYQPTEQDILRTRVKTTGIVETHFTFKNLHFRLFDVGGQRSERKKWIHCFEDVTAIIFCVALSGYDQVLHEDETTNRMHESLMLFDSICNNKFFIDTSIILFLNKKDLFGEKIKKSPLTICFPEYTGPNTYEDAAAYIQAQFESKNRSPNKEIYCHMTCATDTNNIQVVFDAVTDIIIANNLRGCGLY
PKD1 inh: blocks activity of human protein kinase D1; inhibition, %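 (about 10 µM by stock and volumes)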; hit rate 0.056% among 200,000; AID 797; PKD1 kinase fluorescence polarization assay;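 active = inhibition of 50% or more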;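 also: controls were vehicle for no effect and a reference inhibitor for full effect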
HSV replic up: increases HSV replication in cells. HSV replication augmentation in cells, fold increase. maximum fold increase. hit rate 0.005% among 220,000. AID 1956;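 active = peak rise of 1.5-fold or more in the series; tested in PC3 cells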;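 also: first round at 10 µM; read as green reporter fluorescence; hits show the peak of a series up to 25 µM; 1 = signal of infected wells without compound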
Insulin prom inh: TRM-6 insulin promoter activity inhibition; AID 1273; TRM-6 cells (human fetal islet line), insulin promoter-eGFP reporter, imaging; reporter expression induced with tamoxifen; inhibition, % at 2 µM; hit rate 0.9% among 130,000;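 active = inhibition above the mean plus 3 SD, with well images judged a real hit on visual review, cut at about 60% in these data, passing the limit was not always enough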
Insulin prom inh cell count: recorded beside Insulin prom inh, whose call it bears; normalized cell count, %; measured here: cell count, toxicity; reference of the scale not given here;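 cells exposed to compound for 48 h; stained nuclei by imaging scaled within each plate; lower means fewer cells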
HSV replic up primary fold: second read-out of HSV replic up, no call of its own (marks repeat the call); fold increase; compound at 10 µM; measured here: primary screen fold increase 10 uM; tested in PC3 cells;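 GFP signal in the first replicate; 1 = infected wells without compound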
Starred values were filed as active, the others as inactive; i = inactive; . = no result given. The order is random; overall some 1.3% were active at least once.

SMILES	GALR2 agonist	RGS16-Gao	PKD1 inh	HSV replic up	HSV replic up primary fold	Insulin prom inh	Insulin prom inh cell count
Oc1cc(Br)ccc1C=Nc1ccc(N2CCCCC2)cc1	.	100.4	.	i	1	.	.
COc1ccc(OC)c(C(=O)CSc2nccc(-c3ccc(Br)cc3)n2)c1	0.4	102.4	-4.2	i	0.9	.	.
CCCN(Cc1ccccc1)C(=O)Nc1ccc2c(c1)nnn2C	-1.9	98.8	-4.7	i	0.86	-20.0	122.0
COC(=O)Cc1[nH]nc2c1C(c1c[nH]c3ccccc13)C(C#N)=C(N)O2 (configuration not stated)	-1.3	94.7	0.1	i	1.01	-2.9	98.5
CSc1ccccc1-c1nnc(-c2ccc(Cl)cc2)o1	-2.1	92.5	1.9	i	0.99	30.0	68.7
Cn1cnc(S(=O)(=O)Nc2ccc(OC(F)F)cc2)c1	.	98.5	.	i	1.16	.	.
COC(=O)C1CSC(c2ccc(Cl)cc2)N1C(=O)c1ccccc1 (configuration not stated)	.	101.3	-4.0	i	0.93	14.3	126.9
Cn1c(=O)c2c(nc(SCCCO)n2Cc2ccccc2Cl)n(C)c1=O	-0.8	105.1	-12.4	i	0.54	.	.
CC1(C)Oc2ccc3ccc(=O)oc3c2-c2cnoc21	0.5	105.4	-8.1	i	0.78	.	.
CC(=O)c1cc2c(cc1NC(=O)C1CC1)OCO2	-0.8	100.5	0.9	i	0.9	37.1	176.4
OC(CN1CCOCC1)CN1CCOCC1	-3.4	97.5	0.3	.	.	-41.9	85.7
CCN(CC)CCN(C)C(=O)c1ccc(OC2CCN(C(=O)C3CC3)CC2)cc1	.	111.3	-1.1	i	0.95	46.3	102.5
CCC(C)C(Nc1ccc(C(=O)OC)cc1[N+](=O)[O-])C(=O)OC (configuration not stated)	0.3	99.3	-6.8	i	1.02	-42.9	84.8
Cc1cccc(NS(=O)(=O)c2cc(C(=O)NCCC3=CCCCC3)ccc2Cl)c1	0.1	96.1	-6.0	i	1.06	-20.8	83.6
COC(=O)Cc1ccc(NC(=S)NCCC(C)C)cc1	-0.8	109.9	1.3	i	0.97	.	.
COc1cccc(-c2csc(N3CCN(C(=S)Nc4cccc(C)c4)CC3)n2)c1	.	109.1	2.0	i	0.94	.	.
CC(=O)NC(Cc1cc(C)ccc1C)C(=O)N1CCN(C(=O)c2ccc(Br)cc2)CC1 (configuration not stated)	.	99.9	7.7	i	0.98	-16.7	127.1
Oc1ccc(/C=N/N=C/c2ccc(O)cc2)cc1	.	95.7	3.3	i	1.1	16.7	105.5
COc1ccccc1CNC(=O)c1cc(C)nn1-c1ccccc1	.	109.2	.	i	0.79	.	.
COC(=O)c1cccc(NC(=S)Nc2cc(Cl)ccc2OC)c1	.	105.7	7.7	i	1.03	.	.
Clc1ccc(OCc2nnc3n2N=C(c2ccc4c(c2)OCCO4)CS3)c(Cl)c1	-1.0	102.8	7.6	i	0.72	29.6	130.6
c1ccc(C(c2nnnn2C2CCCC2)N2CCN(c3nc4ccccc4s3)CC2)cc1 (configuration not stated)	0.6	100.7	3.3	i	1	0.0	84.4
CCC1C/C(=C\c2cccnc2)C(=O)/C(=C/c2cccnc2)C1 (configuration not stated)	-2.6	30.4	-13.6	i	0.49	63.0	23.7
CN(C)c1ncc(/C=C2/C(=O)NC(=S)N(C3CCCCC3)C2=O)cn1	.	90.6	-3.6	i	1.17	.	.
CCc1onc(C)c1C(=O)O	.	102.8	-6.5	i	0.94	.	.
The results go on.
SMILES	GALR2 agonist	RGS16-Gao	PKD1 inh	HSV replic up	HSV replic up primary fold	Insulin prom inh	Insulin prom inh cell count
CC(=O)c1cccc(NC2c3ccccc3C(=O)N2Cc2ccc3c(c2)OCO3)c1 (configuration not stated)	-0.9	101.6	4.4	i	0.97	-42.9	100.9
COCCCn1c(=NC(=O)c2ccncc2)c(C#N)cc2c(=O)n3cccc(C)c3nc21	5.6*	95.5	-0.6	i	1.14	.	.
Cc1cc(-c2n[nH]c(=S)n2/N=C/c2cccs2)n[nH]1	0.0	105.8	2.6	i	0.93	30.6	102.0
CC(C(=O)NC1=NCCS1)N1C(=O)C2CC=CCC2C1=O (configuration not stated)	-0.2	107.1	8.4	.	.	-121.4	123.7
Cc1nccn1CC(O)COc1ccccc1 (configuration not stated)	-2.3	110.9	-3.3	i	1.01	-250.0	45.0
CCOP(=O)(c1ccc(N(C)C)cc1)C(O)c1cc(OC)c(OC)c(OC)c1 (configuration not stated)	-0.9	115.2	-2.6	i	0.86	13.8	147.2
CCOc1cccc(C(=O)Nc2cccc(-c3nc4ncccc4o3)c2C)c1	-1.3	104.4	8.3	i	0.91	-1.2	192.9
Cc1cccc(C(=O)Nc2sc3c(c2C(=O)O)CCC3)c1	.	98.4	.	i	0.75	.	.
O=C(NCCc1ccccc1)c1ccc2nccnc2c1	.	101.7	0.4	i	0.9	-25.9	56.4
COc1cc2c(cc1OC)-c1nnc(C)n1C1(CCCC1)C2	-1.7	100.5	-2.0	i	0.87	.	.
COCCCNCC1C(Oc2ccc(Cl)cc2)C(=O)N1c1ccccc1C (configuration not stated)	-1.1	61.4	-3.7	i	0.92	-25.9	86.1
COc1ccc(OC)c(NC(=O)c2c(NC(=O)CCC(=O)O)sc3c2CCCCC3)c1	-0.5	99.5	5.7	i	0.98	21.4	43.1
O=C(CNC(=O)c1cccc(OC(F)F)c1)OCn1nnc2ccccc2c1=O	.	108.9	3.6	i	0.93	.	.
CC(=O)N1CCN(c2ccc(NCc3ccc(C(C)C)cc3)cc2)CC1	-1.6	201.3	-1.6	i	1.04	18.8	86.4
CCOc1ccc(NC(=O)C2CCCN(C(=O)Nc3ccccc3)C2)cc1 (configuration not stated)	-0.2	102.3	-7.6	i	0.89	3.5	123.5
Cc1ccc(Oc2ccc(OCC(=O)NC(C)C(=O)O)cc2)cc1 (configuration not stated)	-2.3	99.6	-0.7	i	0.65	-3.0	107.3
CC(C)n1c(Oc2ccc(F)cc2)nc2c1c(=O)n(C)c(=O)n2C	.	102.1	-9.9	i	0.98	28.6	112.7
Cc1cc(C(F)(F)F)n2ncc(C(=O)O)c2n1	.	100.2	-4.9	i	0.94	.	.
COC(=O)c1sccc1NC(=O)CC1C(=O)NCCN1C(=O)c1ccc(N(C)C)cc1 (configuration not stated)	.	94.5	.	i	0.95	.	.
CN1CCN(CCCNC(=O)c2ccc(CSCc3cccc(Cl)c3)o2)CC1	0.4	102.2	0.1	i	1.01	-92.3	116.8
CCNC(=O)CON=C1c2ccccc2-c2ccccc21	-0.3	118.7	10.6	i	0.74	-23.1	71.7
CCOC(=O)c1c(NC(=O)CSc2nc3ccccc3s2)sc(C(C)=O)c1C	-1.2	98.3	11.2	i	0.91	.	.
COc1ccc(OC)c(CN(CCN2CCOCC2)C(=O)Nc2ccccc2)c1	0.7	104.6	4.1	i	0.98	-40.0	134.6
Cc1ccc(-c2cn3cc(C)ccc3n2)cc1	.	101.2	-0.9	i	0.95	30.8	118.5
COC(=O)c1ccc(C2c3c(oc4cc(C)c(C)cc4c3=O)C(=O)N2CCCN(C)C)cc1 (configuration not stated)	.	94.1	-4.3	.	.	.	.
Continuation:
SMILES	GALR2 agonist	RGS16-Gao	PKD1 inh	HSV replic up	HSV replic up primary fold	Insulin prom inh	Insulin prom inh cell count
CCN1/C(=C2/SC(=S)NC2=O)Sc2ccccc21	.	104.7	-2.3	i	0.96	-35.7	57.7
Cn1c(/C=N/Nc2nc3ccccc3[nH]2)nc2ccccc21	.	103.2	-1.3	i	0.86	.	.
Cc1cc2c3c(c1)C(C)CC(C)(C)N3C(=O)C2=C(C#N)C#N (configuration not stated)	.	97.9	.	i	1.1	.	.
O=c1ccc(-c2ccc([N+](=O)[O-])cc2)nn1-c1ccccc1	.	101.6	-9.5	i	0.93	5.9	59.4
COC(=O)c1cc(NC(=O)/C=C/c2ccccc2)ccc1O	.	111.3	-3.6	i	0.73	60.0	126.9
CCn1c(SCC(=O)Nc2cc(C)on2)nnc1-c1ccc(S(=O)(=O)N2CCN(C)CC2)cc1	-2.1	108.4	-4.4	i	0.89	12.5	102.9
c1ccc(C2C/C(=N\N3CCOCC3)c3ccccc3O2)cc1 (configuration not stated)	-1.9	101.4	-15.3	i	0.97	-43.8	39.0
CC12CCC(=O)N1C(C(=O)OCC(=O)Nc1cccc(Br)c1)CS2 (configuration not stated)	.	98.6	-6.0	i	0.96	.	.
CCCCOc1ccc(-c2nc(=S)[nH][nH]2)cc1	-0.5	92.0	0.2	i	0.73	23.3	116.2
CC1CCCCN1C(=O)COc1ccc(NC(=O)c2ccco2)cc1 (configuration not stated)	-1.0	101.7	-3.8	i	0.95	.	.
O=C(CSCC(=O)Nc1cccc([N+](=O)[O-])c1)Nc1ccccc1	0.0	57.8	7.5	i	1.09	.	.
CCOc1cc(S(=O)(=O)N2CCOCC2)ccc1F	-2.5	102.4	-7.0	i	0.9	.	.
COC(=O)c1scc(C)c1NC(=O)CC1NCCNC1=O (configuration not stated)	.	96.3	.	i	0.94	.	.
Cc1cnc(NC(=O)c2cccc(S(=O)(=O)N3CC(C)OC(C)C3)c2)s1 (configuration not stated)	.	98.9	2.8	i	0.93	.	.
COC(=O)C1=C(C)NC(=O)/C1=C\N(C)C	.	104.8	-5.0	i	1.06	-64.7	87.9
CC(=O)/C(=N\Nc1ccc(C)cc1)Sc1nncn1C	-0.6	102.6	-2.5	i	0.86	20.6	90.9
Cc1ccc2c(c1)cc(CN(C(=O)N1CCOCC1)C1CCCC1)c1nnnn12	.	102.2	12.7	i	0.92	.	.
COc1ccc(C(=O)NC(=S)Nc2cc(C)ccn2)cc1[N+](=O)[O-]	0.3	98.1	-6.0	i	0.95	24.7	79.4
CC(=O)N1c2ccccc2C(C)CC12CCCCC2 (configuration not stated)	-0.5	96.6	0.2	i	0.92	29.4	163.6
Cc1cccc(NC(=O)c2ccc(COc3ccc4ccccc4c3)o2)n1	.	102.3	1.4	i	0.65	.	.
Cc1cc(=O)c2n(Cc3ccccc3Cl)nc[n+]2[nH]1	-0.8	99.6	-6.5	i	0.92	37.0	111.8
Nc1c(C(=O)N/N=C/c2ccc(F)cc2)oc2nc(-c3ccccc3)cc(-c3ccco3)c12	.	73.0	.	i	1.29	.	.
O=c1[nH]c(=S)c2c(n1-c1ccccc1)CCC2	-1.7	104.9	-2.9	.	.	22.2	99.0
O=c1c2ccccc2nnn1CSc1nnc(-c2ccc3c(c2)OCO3)o1	-1.1	108.2	0.7	i	1.03	.	.
Cc1cc(C)n2nc(-c3ccccc3)cc2n1	.	109.8	-5.0	i	0.98	42.9	130.7
(list continues)
SMILES	GALR2 agonist	RGS16-Gao	PKD1 inh	HSV replic up	HSV replic up primary fold	Insulin prom inh	Insulin prom inh cell count
O=C(Nc1ccc(CN2CCCCC2)cc1)c1sc2ccccc2c1Cl	.	100.2	.	i	0.62	.	.
O=C1CC(N(CCc2ccccc2)C(=S)Nc2cc(Cl)ccc2Cl)C(=O)N1c1c(Cl)cccc1Cl (configuration not stated)	-0.7	101.4	-4.9	i	0.64	.	.
COc1ccc(OCC(=O)N2CCN(C(=O)c3cccc4ccccc34)CC2)cc1	-0.2	36.5	-3.8	i	0.88	-37.5	89.5
COc1ccc(C(=O)NCc2ccccn2)cc1[N+](=O)[O-]	.	98.9	-6.0	i	0.95	.	.
Cc1onc(-c2c(F)cccc2Cl)c1C(=O)NCCN1CCNC1=O	.	98.4	.	i	1.05	.	.
CCCOCCc1nnc(N)s1	.	100.7	.	i	0.95	.	.
COc1ccc(C(=O)N2CCN(C(=O)c3ccco3)CC2)cc1OC	-2.6	113.8	-15.9	i	0.66	33.3	86.5
Cc1cc(C)n(CCNC(=O)c2cc(COc3ccc(F)cc3Cl)on2)n1	.	100.5	2.0	i	1.14	.	.
Cn1cc(C(=O)NC2C3CC4CC(C3)CC2C4)cn1 (configuration not stated)	-1.7	101.9	-14.5	i	0.94	6.7	144.8
O=C(Nc1ccccc1N1CCN(C(=O)c2ccccc2)CC1)c1ccccc1Cl	.	103.5	.	i	0.84	.	.
COc1ccccc1N1C(=O)c2ccc(C(=O)Nc3nccs3)cc2C1=O	.	95.4	-3.1	i	0.91	-86.7	130.1
CCNC(=O)C(=O)Nc1ccc([N+](=O)[O-])cc1	.	103.1	-8.7	i	1.08	-16.7	112.6
CC(C)NCC(O)COc1ccc(Br)cc1 (configuration not stated)	.	98.7	-2.0	i	0.82	.	.

Among those listed so far, these have a cyano group:
SMILES	GALR2 agonist	RGS16-Gao	PKD1 inh	HSV replic up	HSV replic up primary fold	Insulin prom inh	Insulin prom inh cell count
COC(=O)Cc1[nH]nc2c1C(c1c[nH]c3ccccc13)C(C#N)=C(N)O2 (configuration not stated)	-1.3	94.7	0.1	i	1.01	-2.9	98.5
COCCCn1c(=NC(=O)c2ccncc2)c(C#N)cc2c(=O)n3cccc(C)c3nc21	5.6*	95.5	-0.6	i	1.14	.	.
Cc1cc2c3c(c1)C(C)CC(C)(C)N3C(=O)C2=C(C#N)C#N (configuration not stated)	.	97.9	.	i	1.1	.	.

Compound activity (PubChem BioAssay)
